Compound activity: PubChem BioAssay, ICCB-Longwood Screening Facility, Harvard Medical School
Ba CapD inh: inhibitors of Bacillus anthracis CapD enzyme; z-score (concentration not given with the values); actives 0.23% (n = 140,000); purified CapD enzyme, fluorescence intensity read-out; stronger effect = lower value; some hits fall short of the stated cut;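 active means z-score under -4 in either of two replicates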;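 further: stock transfer was 100 nL into about 40 µL; score is relative to mean and spread of the plate; one replicate is shown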
AID504770: growth inhibitors of E. coli YBA685 in a screen for V. cholerae RctB (chromosome II replication) inhibitors; actives 0.27% (n = 130,000); z-score (test concentration not listed); E. coli YBA685 rctB-dependent plasmid, OD600 growth, 3 h; stronger effect = lower value; AID 504770;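 active means z-score under -2 on both plates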;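 further: wells of about 30 µL received 100 nL stock; score is relative to mean and SD of the test wells; the first replicate is given; strong numbers were not always called active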
* = called active by the depositor; x = not tested or not shown; & = joins results of further samples. Rows are unselected (roughly 0.39% active in at least one column).

SMILES	Ba CapD inh	AID504770
N=C(N)SCc1nc(N)nc(N2CCCCC2)n1	-0.495	1.35
COC(=O)c1scc(S(C)(=O)=O)c1N	40.8	x
CCn1c(=O)cc(OCC(=O)N(C)c2ccccc2F)c2ccccc21	0.695	-0.25
NS(=O)(=O)c1cc2c(cc1C(F)(F)F)NCNS2(=O)=O	-0.085&0.405	0.15
COc1cc([N+](=O)[O-])c(OC)cc1SCC(=O)NNC(=O)c1cccc(C)c1	-0.89	x
CCCN(CCC)C(=O)Cc1ccc(F)cc1	0.17	-0.5
O=C(CCCn1c(=O)c2sccc2n(Cc2ccc(F)cc2Cl)c1=O)NCc1ccco1	0.08	1.1
CCC(=O)n1cnc2ccccc21	-0.21	-0.8
CCSc1nc2c(c(=O)[nH]1)C(c1ccncc1)C(C(=O)OC)=C(C)N2 (configuration not stated)	-0.68	-0.3
CCc1ccc2[nH]c3nc4ccccc4nc3c2c1	0.905	-1.05

Reformatted with bars between the fields: part of the list above
SMILES | Ba CapD inh | AID504770
NS(=O)(=O)c1cc2c(cc1C(F)(F)F)NCNS2(=O)=O | -0.085&0.405 | 0.15
COc1cc([N+](=O)[O-])c(OC)cc1SCC(=O)NNC(=O)c1cccc(C)c1 | -0.89 | x
CCCN(CCC)C(=O)Cc1ccc(F)cc1 | 0.17 | -0.5
O=C(CCCn1c(=O)c2sccc2n(Cc2ccc(F)cc2Cl)c1=O)NCc1ccco1 | 0.08 | 1.1
CCC(=O)n1cnc2ccccc21 | -0.21 | -0.8

Carrying on:
SMILES	Ba CapD inh	AID504770
COC(=O)Cn1c(SCc2ccccc2)nc2ccccc21	-0.285	0.1
CCCCN(CCCC)Cc1c(C(=O)OCC)nnn1-c1nonc1N	-0.275	x
S=C(Nc1cc(Cl)ccc1Cl)Sc1ccc(Cl)cc1	-0.07	x
CSc1nnc(C2CCCN(CC(=O)NCc3cccs3)C2)n1C (configuration not stated)	x	-1.05
CC(C)CC1NC(=O)N(Cc2ccc(CN3C(=O)NC(CC(C)C)C3=O)cc2)C1=O (configuration not stated)	x	0.25
Cc1ccc2c(c1)c1nc3ccccc3nc1n2Cc1ccccc1	4.73	-0.25
O=C(c1ccccc1)N1CCN(C(=O)c2ccc3c(c2)OCO3)CC1	x	0.3
Cc1nn(C)cc1C(=O)NC(=O)NN(C)c1ncc(C(F)(F)F)cc1Cl	-0.28	x
Cc1ccc(Nc2nc(C)cc(C)c2C#N)cc1	1.42	-0.25
CN(CCO)Cc1ccc2c(c1)OCO2	x	-0.1
N#Cc1c(Cl)cccc1N1CCC(C(=O)NC(=O)Nc2ccc(Cl)cc2)CC1	0.97	x
N#CC(C1=NS(=O)(=O)c2ccccc21)c1nc2ccccc2n1Cc1ccccc1 (configuration not stated)	x	-0.45
CCCCCCC(C)OC(=O)c1ccccc1C(=O)O (configuration not stated)	0.285	x
O=C(OCc1nc2ccccc2s1)c1cccs1	0.145	-1.15
CCc1ccccc1Nc1cc(C(=O)NCc2cccnc2)c2ccccc2n1	0.77	0.1
Cc1cc(C)nc(Nc2ccc([N+](=O)[O-])cc2)n1	-0.385	x
Cn1nc(C(=O)Nc2ccc3c(c2)OC2(CCCC2)O3)ccc1=O	x	-0.05
CCOC(=O)c1ccc2[nH]c(C(=O)OCC)c(CCC(=O)O)c2c1	7.59	0.95
CCn1ncc(C2=NOC(C(=O)N3CCCc4ccccc43)C2)c1C (configuration not stated)	0.315	0.35
CCOc1ccc(NC(=O)Cc2cccc3c(S(=O)O)cccc23)cc1	-0.125	-1.15
COc1cc(N(C)C)c([N+](=O)[O-])cc1C(=O)NCCN1CCN(C)CC1	-0.9	x
Cc1cccc(C)c1-n1nnnc1-c1cnccc1C(F)(F)F	0.655	-0.15
CCOC(=O)c1oc2ccc(Br)cc2c1CSc1nnc(C(F)(F)F)n1C	x	2.75
CC(=O)NCc1nc2ccccc2n1Cc1ccccc1C	0.39	-0.15
O=C(Nc1ccccc1)Oc1ccccc1	0.83	0.35
COc1ccc(/C=C2\C=C(c3ccccc3)N(c3ccc(Cl)cc3Cl)C2=O)cc1Br	0.62	x
COc1ccc(C(=O)Nn2c(SCC(=O)NCCc3ccccc3)nc3ccccc3c2=O)cc1	-0.18	x
CCn1c(C)nc2cc(C(=O)O)ccc21	x	0.65
COc1cc(/C=N/n2cnnc2-n2nc(C)cc2C)cc([N+](=O)[O-])c1O	-1.15	x
CC1CCC(C#N)(N(C)C(=O)CSc2nc(C3CC3)n(-c3ccccc3)n2)CC1 (configuration not stated)	x	-1.95
O=C(NC(=O)C1CCNCC1)c1cc2c(s1)CSC2	-0.87	-0.15
COC(=O)CCN1C(=O)/C(=C\c2ccc(N(C)C)cc2)SC1=S	0.44	-0.45
O=C(NCc1ccc(-c2csnn2)cc1)OCc1ccccc1F	-0.67	x
CCC(=O)c1c[nH]c(C(=O)NCc2cccc(C(F)(F)F)c2)c1	-0.185	-0.35
N#CC1(C#N)C(c2ccc(Cl)cc2Cl)C(C(=O)c2ccccc2)N2C=Cc3ccccc3C21 (configuration not stated)	0.365	x
CCC(COc1nnnc2ccccc12)NC(=O)C1CCN(S(C)(=O)=O)CC1 (configuration not stated)	-0.555	1.5
CC1=NCCCN1C(=O)c1c(-c2c(Cl)cccc2Cl)noc1C	0.06	0.1
O=C(CSc1ccccn1)N1CCCc2ccccc21	0.53	1.65
O=c1cc(CN2CC(O)Cc3ccc4ccccc4c32)nc2sccn12 (configuration not stated)	x	1.2
O=C(CSc1ccc2c(c1)OCCO2)N1CCc2ccccc21	x	0
Cc1cc(/C=N/N2CCOCC2)c(C)n1-c1cccc2ccccc12	x	2.45
Cc1nc(CSc2n[nH]c(=O)n2Cc2ccccc2)cs1	1.35	-0.2
O=C(COC(=O)C1CCN(C(=O)Nc2ccccc2)CC1)Nc1ccc2c(c1)OCO2	x	-0.05
CC(C)(C)OC(=O)C(Cc1c[nH]c2ccccc12)NC(=O)OCCc1ccsc1 (configuration not stated)	0.26	x
CC(C)(C)NNC(=S)Nc1cccc(Cl)c1	0.38	x
Cc1sc2nc(SCC(=O)N(CCO)CCO)n(C3CCCCC3)c(=O)c2c1C	x	-0.1
O=C1/C(=C\c2cccnc2)SC(=Nc2ccccc2)N1CCc1ccccc1	-0.035	x
NC(=O)C1CCN(C(=O)c2ccc3c(=O)n(Cc4ccco4)c(SCc4cccc([N+](=O)[O-])c4)nc3c2)CC1	-0.525	x
Cc1nn(-c2ccccc2)nc1CNS(=O)(=O)c1ccc(-c2ccno2)s1	0.945	0.7
O=c1oc2ccccc2c(O)c1C=Nc1ccc(C(F)(F)F)cc1	-0.105	-0.6

Quoted from the listing.
CCCN(CCC)C(=O)Cc1ccc(F)cc1 @ Ba CapD inh: 0.17
Cn1nc(C(=O)Nc2ccc3c(c2)OC2(CCCC2)O3)ccc1=O @ AID504770: -0.05

Following part
SMILES	Ba CapD inh	AID504770
Nc1nonc1-n1nnc(C(=O)N/N=C\C2CC=CCC2)c1CN1CCCCCC1 (configuration not stated)	-0.285	x
CNC(=O)CCc1cn(Cc2ccccc2Cl)c2ccccc12	0.36	-1.1
COCCOc1cc(NC(=O)CSCC(=O)N(C)C)c(Cl)cc1Cl	-0.005	x
CN(CC(=O)O)c1ncnc2sccc12	x	-0.9
COC(=O)c1ccc(COc2coc(CN3CCc4ccccc4C3)cc2=O)cc1	x	0
CCOc1cc2c(=O)[nH]c3c(C(=O)NCc4ccco4)sc(=S)n3c2cc1OCC	-2.27	1.35
CC(=O)/C(=C/Nc1ccc(I)cc1)c1ccccc1	-1.33	x
CCOC(=O)/C(=N/O)C1=NN=C(N)SC1	-1.4	-1.2
O=c1c(Cc2c(F)cccc2Cl)c(O)ccn1CCCN1CCOCC1	0.47	x
O=C(Nc1nc2ccc(Br)cc2s1)c1cc2ccccc2o1	x	1.55
O=C(NCc1ccco1)c1cc(S(=O)(=O)NCc2ccco2)c[nH]1	x	-0.5
COC(=O)c1ccc(NC(=O)CSc2nnc3sc4ccccc4n23)cc1	x	1.2
O=C(CSc1nnc(CNC(=O)c2ccco2)o1)NCc1ccc2c(c1)OCO2	-0.14	-0.9
O=C(Nn1cnnc1)c1ccc(OC(F)(F)C(F)C(F)(F)F)cc1 (configuration not stated)	x	2.2
O=C1CC(c2ccccc2Cl)c2ccc3ccccc3c2N1 (configuration not stated)	0.835	x
O=C(OC1=CC(=O)c2cccc3cccc1c23)c1ccccc1	-1.62	-0.4
Cc1cccc2c1N(C(=O)c1cccc([N+](=O)[O-])c1)C(C)(C)c1ssc(=S)c1-2	0.375	x
Cc1ccc2snc(C(N)=O)c2c1	2.29	x
CC(Nc1ncnc2c1oc1ccccc12)C(=O)O (configuration not stated)	0.33	x
OC(CN1CCC(Cc2ccccc2)CC1)CN1CCN(c2cccc(C(F)(F)F)c2)CC1 (configuration not stated)	-0.34	-0.05
COc1cc(C(=O)NCc2ccc(OCCN(C)C)cc2)cc(OC)c1OC	0.34&-1.31	0.15
CCc1c(C)[nH]c(C(=O)OC(C)(C)C)c1C	-0.525	-0.5
O=C(NC1CCCCC1NC(=O)c1ccccc1Cl)c1ccccc1Cl (configuration not stated)	0.31	0.3
Cc1c(C(=O)Nc2ccc3c(c2)OCO3)sc2ncn(CC(=O)Nc3cccc(C(F)(F)F)c3)c(=O)c12	0.815	x
CC(C)NC(=S)NN(c1ccccc1)c1ccccc1	x	0.75
CC(=O)Nc1ccc(S(=O)(=O)N2CCN=C2SCc2c(F)cccc2Cl)cc1	-0.78	-0.85
O=C1CCCN1c1ccc(S(=O)(=O)NC2CC2)c(Cl)c1	x	-1.05
N#Cc1cccc(NC(=S)Nc2ccccc2)c1	0.04	-0.05
CC(C)(C)n1cnc2cc(NCc3cccs3)ccc21	12.5	-0.55
O=C(Nc1ccc(Cl)cc1)N[C@@H]1c2c(ccc3ccccc23)OC[C@@H]1CO	0.48	x
O=C(O)CCCC(=O)N1N=C(c2c(-c3ccccc3)c3cc(Cl)ccc3[nH]c2=O)CC1c1ccccn1 (configuration not stated)	17	x
Cc1nnc(-c2cccc(S(=O)(=O)N3CCN(C(c4ccccc4)c4ccccc4)CC3)c2)o1	-0.015	0.75
COc1ccc(C2N(Cc3ccccc3)CCN2Cc2ccccc2)c2ccccc12	-0.37	x
CCn1c(=O)cc(OCC(=O)N2CCC3(CC2)OCCO3)c2ccccc21	1.14	0.05
CSc1cccc(NC(=O)CN(c2cc(C)cc(C)c2)S(=O)(=O)c2c(C)noc2C)c1	-0.355	0.85
N#CCCn1nc(-c2ccc(F)cc2)ccc1=O	9.04	-0.8
COc1ccc2c(CCNC(=O)OCCc3c(C)cc(C)cc3C)c[nH]c2c1	-0.15	x
Cc1ccc2[nH]c3c(c2c1)CCCC3N1CCOCC1 (configuration not stated)	0.895	-0.15
Cc1cc(C)nc(SCC(=O)OCc2cc(=O)n3cc(Br)ccc3n2)n1	x	0.25
CCN(CC)C(=O)CN1C(=O)c2cccc3cccc1c23	-0.26	1.3
O=C(NCc1ccccc1)c1ccc2ccccc2n1	0.29	1.85
O=C(NCCCn1ccnc1)c1cnn2c1NC(c1ccccc1)CC2C(F)(F)F (configuration not stated)	-0.215	1.25
NC(=O)N/N=C1\CCOc2ccc3ccccc3c21	-0.885	x
COc1cccc(C2=NS(=O)(=O)N(C)C(C(=O)N3CCCC3)=C2)c1	-1.35	0
CC(C)Oc1cccc(C(=O)n2cnnc2N)c1	-0.215	-0.25
CC(=O)Nc1cc(C(=O)N(C)CCC#N)ccc1Sc1ccc(Cl)cc1	0.195	0
CCCN1CCN(C(=O)CC(=O)Nc2ccc3nc4n(c(=O)c3c2)CCCCC4)CC1	1.85	0.7
CC(=O)Nc1cccc(NC(=O)c2c(F)c(F)c(F)c(F)c2F)c1	-0.345	-0.8
COCCNC(=O)c1ccccc1NS(=O)(=O)c1ccc(NC(C)=O)cc1	0.395	-0.4
CCOC(=O)c1c(C)[nH]c(C)c1C(=O)COC(=O)CSc1nc2ccccc2o1	x	0.15
(more compounds)
SMILES	Ba CapD inh	AID504770
CC(=O)Nc1sc(C)c(C)c1CN1CCCC(C)C1 (configuration not stated)	x	0.9
Cc1[nH]n(-c2ccccc2)c(=O)c1/C=C1\C=NN=C1c1ccccc1	-1.25	1.7
O=C(COc1ccc(Cl)cc1Cl)NCC12C=CC(O1)C1C(=O)N(Cc3ccccc3)C(=O)C12 (configuration not stated)	-1.18	-0.5
O=C(CCCn1c2ccccc2c2cn[nH]c(=O)c21)NCC1CCCO1 (configuration not stated)	5.21	-0.2
O=C(NCCc1ccc(Oc2ccccc2)cc1)c1ccc(CSc2ccccn2)o1	-0.7	x
CCc1ccc(C(=O)CSc2n[nH]c(-c3ccncc3)n2)cc1	0.055	x
O=C(Oc1ccccc1-c1nnco1)c1ccc(Cl)cc1	0.985	-1.05
C=CCN1C(=O)C(Cc2ccc(O)cc2)NC1=S (configuration not stated)	14.7	-0.15
CCN(CC)Cc1cc(N=O)c2cccnc2c1O	-3.16	0.55
CCn1c(Cc2ccccc2)nnc1SCc1ccc(C#N)cc1	-0.37	-0.55

3 entries already listed, ordered by SMILES length, largest number first.
SMILES	Ba CapD inh	AID504770
Cc1[nH]n(-c2ccccc2)c(=O)c1/C=C1\C=NN=C1c1ccccc1	-1.25	1.7
O=C(NCCc1ccc(Oc2ccccc2)cc1)c1ccc(CSc2ccccn2)o1	-0.7	x
C=CCN1C(=O)C(Cc2ccc(O)cc2)NC1=S (configuration not stated)	14.7	-0.15

(continued)
SMILES	Ba CapD inh	AID504770
CCOC(=O)N1CCN(C(=O)CCN2C(=O)c3ccccc3C2=O)CC1	0.15	x
CCCNC(=O)c1ccc2c(c1)C(=O)N(CCC)C2O (configuration not stated)	0.14	-0.2
Cc1ccc(S(=O)(=O)OCC(NC(=O)OC(C)(C)C)C(=O)OCc2ccccc2)cc1 (configuration not stated)	0.25	x
CN(C)c1ccc(/C=C2/SC(=S)N(CCCCC(C(=O)O)N3C(=O)/C(=C\c4ccc(N(C)C)cc4)SC3=S)C2=O)cc1 (configuration not stated)	-0.56	x
COc1ccccc1NC(=O)c1ccc(S(=O)(=O)N(C)C)cc1	-0.465	-0.35
